# CDC25B-CDK2 inh = primary biochemical HTRF screen for blockers of M-phase inducer phosphatase 2 binding to CDK2/cyclin A | P30305+P24941 | HTRF CDC25B-CDK2/CyclinA binding, anti-His/anti-Flag; active compounds read high | z-score (no concentration beside the values) | actives 0.72% (n = 94,000);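 further: score is relative to mean and SD of negative controls; strong numbers were not always called active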
# TAR Tat displ = TAR RNA-Tat peptide displacers, HIV-1, primary screen, biochemical, FRET, FAM/TAMRA-labeled Tat; HIV-1 TAR RNA, Tat peptide displacement FRET; active compounds read high; AID 1259389, 2018; actives 0.6% (n = 100,000); z-score (test concentration not listed);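 further: score is relative to mean and SD of negative controls; some compounds called inactive have numbers as strong as hits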
# * marks the source's active call; other numbers are inactive results; · = not tested or not shown.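 How the source made its calls: active means z-score from 3 up in half or more of its runs; inactive means the rest.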
# Under each structure – CDC25B-CDK2 inh | TAR Tat displ
CCOC(=O)N1CCN(C(=O)c2ccc3c(SCC(=O)O)c4c(nc3c2)CCC4)CC1
 : -0.09 | -1.1
CC(C)Cn1c(=O)c2sccc2n2c(CCCC(=O)N3CCN(C(=O)c4ccco4)CC3)nnc12
 : · | -0.06
CCS(=O)(=O)c1nc(S(=O)(=O)c2ccc(C)cc2)c(N2CC(C)OC(C)C2)s1 (configuration not stated)
 : -0.23 | 0.92
c1ccc(-c2nnc(-c3ccccn3)nc2-c2ccccc2)cc1
 : -1.5 | ·
Clc1ccc2nc(SCCc3ccccc3)[nH]c2c1
 : -2.5 | 1.2
Cc1cccc(C2C=C(c3ccc(C)c(C)c3)Nc3ncnn32)c1 (configuration not stated)
 : · | 1.8
CCOCCn1c(C(C)O)nc2ccccc21 (configuration not stated)
 : -1.1 | 0.73
O=C1CCC(=O)N1CCn1c2ccccc2c2nc3ccccc3nc21
 : -0.51 | 2.5
Cn1ncc(Br)c1NC(=O)c1ccco1
 : -1.3 | ·
Cc1cc(NCCc2ccccc2)n2ncc(-c3ccc(F)cc3)c2n1
 : -1.1 | -0.23
COC(=O)c1ccc(C2CC(=O)NC3=C2C(=O)CC(c2cccs2)C3)cc1 (configuration not stated)
 : -0.96 | -1.3
O=C(NCCCO)Nc1ccc2nc(-c3ccccc3)c(-c3ccccc3)nc2c1
 : -0.48 | ·
CSc1nc2ccc(NC(=O)c3cccs3)cc2s1
 : 0.69 | ·
O=c1[nH]c2ccc(NS(=O)(=O)c3ccc(Cl)cc3)cc2s1
 : 0.12 | 1.2
O=S(=O)(Nc1ccc(-c2nc3ccccc3s2)c(Cl)c1)c1cccc2nsnc12
 : · | -0.32
O=S(=O)(Nc1ccc(-c2ccc(N3CCCC3)nn2)cc1)c1cccc(Cl)c1
 : · | 0.04
CCOC(=O)c1ccc(N2C(=O)C3ON(c4ccc(Cl)cc4)C(c4cccs4)C3C2=O)cc1 (configuration not stated)
 : 1.6 | -0.19
CC1(C)CC(=O)c2c(NCc3ccco3)sc(C#N)c2C1
 : -0.98 | ·
Cc1sc2ncnc(SCC(=O)Nc3ccc(Cl)cc3)c2c1C
 : -14 | 1.5
CSc1nc2c(sc3ccccc32)c(=O)n1CC1CCCO1 (configuration not stated)
 : -0.82 | ·

# 4 compounds from above, sorted by length of the SMILES, rising.
# Under each structure – CDC25B-CDK2 inh | TAR Tat displ
Cn1ncc(Br)c1NC(=O)c1ccco1
 : -1.3 | ·
Clc1ccc2nc(SCCc3ccccc3)[nH]c2c1
 : -2.5 | 1.2
CSc1nc2c(sc3ccccc32)c(=O)n1CC1CCCO1 (configuration not stated)
 : -0.82 | ·
O=c1[nH]c2ccc(NS(=O)(=O)c3ccc(Cl)cc3)cc2s1
 : 0.12 | 1.2

# Next part.
# Under each structure – CDC25B-CDK2 inh | TAR Tat displ
Cc1cc(C)c(S(=O)(=O)Nc2ccc3c(c2)CC(=O)N3C)cc1C
 : · | 0.71
CC1C=CCC2C(=O)N(c3cccc(C(=O)OCC(=O)c4ccc(Cl)c([N+](=O)[O-])c4)c3)C(=O)C12 (configuration not stated)
 : -3.5 | ·
Cc1ccn2c(=O)c(NC(=O)c3ccc(Br)cc3)c(C)nc2c1
 : · | 0.61
CN(C)c1ccc(/C=N/Nc2cnc3ccccc3n2)c(Cl)c1
 : -1.9 | ·
CCCCCCC(C)n1[nH]c(=O)c2c(C)cc(=O)[nH]c21 (configuration not stated)
 : -1.9 | ·
CCc1c(C)nc2nc(-c3ccccc3)nn2c1Nc1ccc2c(c1)OCCO2
 : · | 1.1
CCc1nn(C(C)C(=O)NCc2ccccn2)c(=O)c2cc3occc3n12 (configuration not stated)
 : -0.98 | 2.4
CCCn1cc(S(=O)(=O)c2ccccc2)c(=O)c2cc(Cl)ccc21
 : -2 | 1.9
COC(=O)Oc1ccc2c(=O)c(Oc3ccccc3Cl)coc2c1
 : 2.1 | 0.31
CC1=C(c2ccc(C)cc2)S(=O)(=O)N=C1Nc1cccc(Cl)c1C
 : -0.33 | 1.6
COc1cc(S(=O)(=O)Nc2cccnc2)ccc1F
 : -1 | 0.24
CCOC(=O)CCc1c(CC(=O)OCC)c[nH]c1/C=N/O
 : -2.4 | ·
CC1CCN(S(=O)(=O)c2ccc(-c3cc(C(F)(F)F)on3)s2)CC1
 : · | 2
COCCN1C(=O)c2[nH]nc(-c3ccccc3O)c2C1c1ccc(Br)cc1 (configuration not stated)
 : -1.1 | 1.9
COC(=O)c1ccc(-c2nc(-c3ccccc3)no2)cc1
 : -2.4 | -0.49
CCCC1CC(CSc2nc3ccccc3[nH]2)OC1=O (configuration not stated)
 : 0 | 0.57
COc1cc(O)ccc1C1Nc2ccccc2-c2cc(C)nn21 (configuration not stated)
 : -1.4 | 0.04
Nc1nc(NS(=O)(=O)c2cc(C(F)(F)F)cc(C(F)(F)F)c2)cc(-c2ccc(F)cc2)n1
 : -1.2 | ·
COc1ccc(OC)c(Nc2nc3c(S(=O)(=O)c4ccccc4)nnn3c3ccccc23)c1
 : -2.4 | 0.02
COc1ccc(-c2cc(C(=O)O)c3c(-c4ccc(F)cc4)[nH]nc3n2)cc1Br
 : · | 0.94

# (further entries)
# Under each structure – CDC25B-CDK2 inh | TAR Tat displ
CCCN1C(=O)Cn2cccc2C1C(=O)NC1CCCCC1 (configuration not stated)
 : -1.4 | 1.9
CSc1ncc2c(=O)n(CC(=O)Nc3ccc(Cl)cc3)cnc2n1
 : · | 1.2
Cc1nnc2c(NCc3ccc(F)cc3)nc3ccccc3n12
 : -1.9 | -0.59
O=c1c(-c2ccccc2)c(N2CCN(c3ncccn3)CC2)c1=O
 : · | 1.1
O=c1[nH]cccc1-c1nc(-c2cccc(Cl)c2)no1
 : 1.5 | 0.65
Cc1nc2sc(C(c3cccc(F)c3)N3CCN(c4ccccc4F)CC3)c(O)n2n1 (configuration not stated)
 : -0.91 | ·
CC1CCN(c2cc(N3CCN(CCO)CC3)c3noc4c3c2C(=O)c2ccccc2-4)CC1
 : -1.9 | -5.1
O=C(CCCc1c[nH]c2ccccc12)N1CCN(S(=O)(=O)c2ccc(F)cc2)CC1
 : · | 1.1
CCOC(=O)C(=CNc1cc(C(F)(F)F)ccc1Cl)C(=O)OCC
 : -1.6 | ·
CCCOc1ccc(C2c3c(oc4ccccc4c3=O)C(=O)N2c2nc(C)c(C)s2)cc1 (configuration not stated)
 : -0.41 | 0.51
CC1CCN(S(=O)(=O)c2ccc3c(c2)c(=O)c(C(=O)NC2CCCCC2)cn3C)CC1
 : -0.64 | ·
CCc1nn2c(=O)cc(COC(=O)c3ccc(C)cc3)nc2s1
 : · | -0.08
CC(=O)c1cc(F)c(Cl)cc1Cl
 : -0.74 | ·
O=C(O)CSc1ccc2nnc(-c3ccc(F)cc3)n2n1
 : -0.15 | ·
CC(C)(CC(=O)O)Cc1nc(-c2ccc(Cl)cc2)no1
 : -1.3 | 0.28
CC1=C(c2ccc(F)cc2)S(=O)(=O)NC1=NCc1ccccc1Cl
 : · | -0.24
COc1cccc(OC)c1C(=O)Oc1ccc2c(=O)c(-c3ccccc3)coc2c1
 : -2.2 | -0.42
CC1CCN(S(=O)(=O)c2ccc3c(c2)CCN3C(=O)Nc2ccc(F)cc2)CC1
 : -3.1 | 0.77
COc1cc(C2C(C(=O)OC(C)C)=C(C)NC3=C2C(=O)CC(C)(C)C3)cc(Cl)c1O (configuration not stated)
 : -1.3 | 1.3
CCCN1C(=O)C2(c3ccccc31)c1c(oc3cc(C)c(C)cc3c1=O)C(=O)N2CC1CCCO1 (configuration not stated)
 : 1.8 | 1.6

# Remaining list, next part:
# Under each structure – CDC25B-CDK2 inh | TAR Tat displ
Clc1ccc(CNc2nc3ccccc3n2CCN2CCOCC2)cc1
 : -2 | -0.05
Cc1ccccc1-n1cc(-c2ccccc2)c2c(N3CCOCC3)ncnc21
 : -0.28 | 0.18
Cc1ccc2nc(C3=C(O)CN(c4ccc(C)c(Cl)c4)C3=N)[nH]c2c1
 : 1.4 | 1.8
CC(C)CN[C@H]1CS(=O)(=O)C[C@@H]1S(=O)(=O)c1ccc(Cl)cc1
 : -1.9 | -0.91
COc1ccc(S(=O)(=O)NCCc2csc(-c3ccc(F)cc3)n2)cc1OC
 : · | 1.8
O=C(Oc1ccccc1N1CCCCC1)C1CCN(c2nccc(C(F)(F)F)n2)CC1
 : -0.69 | ·
CC(C)CC1=NN(C(=O)COc2ccccc2)C(O)(C(F)(F)F)C1 (configuration not stated)
 : 3.1 | ·
O=C(Nc1n[nH]c(-c2ccccc2)n1)C1CCC1
 : · | 2.8
Cc1cccc(NC(=O)CSc2nnc(CNC(=O)c3ccco3)n2-c2cccc(C)c2)c1
 : -0.95 | ·
CCOC(=O)C1CCN(C(=O)C2CCCN(c3nn4c(=O)cc(C)nc4s3)C2)CC1 (configuration not stated)
 : 4.3 | 1.5
Cc1cc(C)n2c(=O)n(CC(=O)Nc3ccc(Cl)cc3)nc2n1
 : · | -0.09
N#C/C(N=Cc1cc(Cl)cc(Cl)c1O)=C(\C#N)N=Cc1cc(Cl)cc(Cl)c1O
 : -1.2 | ·
CCOC(=O)C1=C(C)Nc2nnnn2C1c1ccc(O)cc1 (configuration not stated)
 : 0.21 | 1.6
NC(=O)c1sc(=S)n(-c2ccc(Cl)cc2)c1N
 : -1.1 | -0.42
Cc1ccc(NC(=O)NCc2ccc(C#N)cc2)cc1Cl
 : -1.1 | ·
CN(C)CCCN(C(=O)c1cccs1)c1nc2c(F)cccc2s1
 : · | 0.34
CC(SCC(=O)O)(SCC(=O)O)c1ccccc1
 : 0.22 | ·
CCCCN(CC)CCNc1ncnc2onc(-c3ccc(Cl)cc3)c12
 : 1.5 | 1.1
Cc1ccc(C2C(C#N)=C(N)Oc3nc(-c4ccccc4)[nH]c32)o1 (configuration not stated)
 : -1.3 | ·
O=c1ccc(-c2ccc(S(=O)(=O)N3CCOCC3)s2)n[nH]1
 : · | 0.16

# The listing continues:
# Under each structure – CDC25B-CDK2 inh | TAR Tat displ
FC(F)(F)c1cc(N=NN2CCOCC2)cc(C(F)(F)F)c1
 : -0.63 | ·
Cc1cc(/C=C2\C(=O)NC(=S)N(c3ccc(Cl)cc3)C2=O)c(C)n1-c1ccc(I)cc1
 : -5.8 | ·
COc1ccc(/C(O)=C2\C(=O)C(=O)N(c3nnc(C)s3)C2c2cccc(Oc3ccccc3)c2)cc1 (configuration not stated)
 : -2.1 | -3.8
CCN1C(=O)C(O)(CC(=O)c2ccc(F)cc2)c2ccccc21 (configuration not stated)
 : -0.32 | -0.4
CC1(C)CC(=O)C2=C(C1)Nc1ncnn1C2c1cccc(O)c1 (configuration not stated)
 : -0.77 | -0.36
CCCN(CCC)C(=O)Cn1ncn2c(cc3ccccc32)c1=O
 : -1.2 | 0.51
O=C(Nc1cc(F)c2nc(N3CCOCC3)ccc2c1)C1CCCCC1
 : · | -0.02
O=C(c1cc(-c2ccc3c(c2)OCCO3)on1)N(Cc1cccs1)C1CCS(=O)(=O)C1 (configuration not stated)
 : -2.7 | 1.6
Cc1cc(NCCC(C)C)n2nc(C)c(-c3ccc(F)cc3)c2n1
 : 0.16 | -0.14
CN(C(=O)c1oc(=O)c2ccccc2c1-c1ccccc1)c1cccc(Cl)c1
 : 0.68 | 0.97
O=C(c1noc2c1CCCCC2)N1CCN(c2cccc(Cl)c2)CC1
 : · | 0.07
CN(C)CCN1C(=O)CCC1(C)C(=O)NC1CCCC1 (configuration not stated)
 : -0.93 | 0.31
CCOC(=O)c1c(C)n(C)c2ccc(O)cc12
 : -0.68 | 0.41
CC(C)N1C=C(OC(=O)c2ccccc2)c2ccccc2S1(=O)=O
 : 0.77 | -1.5
CCC(C)N(C)Cc1cccc(C2(O)CCN(S(=O)(=O)c3ccc(F)c(C)c3)CC2)c1 (configuration not stated)
 : -1.5 | 1.4
Fc1ccc(CNCc2cccn2-c2nnc(N3CCOCC3)s2)cc1
 : · | 0.02
CCC(Sc1nc2ccccc2[nH]1)C(=O)Nc1ccc(S(N)(=O)=O)cc1 (configuration not stated)
 : -0.41 | ·
Cc1ccc(-n2c(SCC(N)=O)nc3sc4c(c3c2=O)CC(C(C)C)OC4)cc1 (configuration not stated)
 : -6.4 | 2.9
CC(C)Sc1nc(=O)n(C2CCCC2)c2c1CCC2
 : -1.6 | -0.68
CC1(C)C(=O)N(CC(=O)N2CCCCC2)c2ccc(S(=O)(=O)N3CCCCC3)cc21
 : · | 0.88

# Remaining list, next part.
# Under each structure – CDC25B-CDK2 inh | TAR Tat displ
CCCc1cc(=O)n2nc(N(C)CC(=O)Nc3ccc(F)cc3)sc2n1
 : -1.3 | -0.5
O=C(NC1CCCCC1)c1c2c(nc3ccccc13)C(=O)N(C1CCCCC1)C2
 : -0.28 | 2.2
CN(C)S(=O)(=O)c1ccc(Nc2nc3ccccc3n3cnnc23)cc1
 : -0.38 | -0.09
O=C(CSc1nnc2c(n1)[nH]c1ccccc12)N1CCCc2ccccc21
 : -0.74 | -0.05
CCCCN(CCCC)S(=O)(=O)c1c[nH]c(C(=O)OC)c1
 : · | 2.5
CCc1nc2nc(C)c([N+](=O)[O-])c(=O)n2[nH]1
 : -1.7 | 1.5
O=C1CCCc2cc(S(=O)(=O)N3CCC(C(=O)NCc4ccco4)CC3)ccc2N1
 : · | 0.25
CC1CCCN(S(=O)(=O)c2ccc3c(c2)CC(C)N3C(=O)C2CC2)C1 (configuration not stated)
 : · | 0.98
O=C(Cn1ncn2nc(-c3cccs3)cc2c1=O)NCCCN1CCOCC1
 : -1.6 | -0.17
Cc1noc(/C=C/N(C)C)c1S(=O)(=O)N1CCCC(C(=O)Nc2ccccc2F)C1 (configuration not stated)
 : 0.09 | ·
COc1cccc(OCc2cc(=O)n3c(C)csc3n2)c1
 : -0.55 | -0.86
Cc1nc(C)c(-c2ccc(SCC(=O)Nc3ccc(F)cc3)nn2)s1
 : · | 0.62
CC(C(=O)O)N1Cc2ccccc2C1=O (configuration not stated)
 : · | 0.55
Cc1oc2cc(Br)c(OC(=O)c3ccco3)cc2c1C(=O)OC(C)C
 : 0.01 | 1.6
Cc1ccc(-c2cc(-c3c(C)nn(C)c(=O)c3N)[nH]n2)cc1
 : -1.4 | ·
O=c1cc(CSCc2ccccc2)[nH]c2ccc(F)cc12
 : · | -1.9
